# HSD17B inh: inhibitors of human HSD17B10 dehydrogenase; Q99714; recombinant HSD17B10, NADH fluorescence kinetic; many of its hits are not listed in these tables; Potency, µM (top dose mostly 57.1 µM), inactives show top-dose activity change, negative = inhibition, hits mostly inhibitors; 7.6% of 75,000 active; AID 893; active means well fitted inhibition curve with a large enough effect; inconclusive means small, poorly fitted or top-dose-only effect; inactive means no such curve, though single readings can be large or run the other way;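 further: the protocol describes HADH2 (HSD17B10) and not the HSD17B4 of the title; nearly all actives have a fitted effect of over 70% in size; most hits overshoot -100% by far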
#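 Enzyme plus compound, 15 min room temperature; substrate mix added (NAD+ 1 mM, beta-hydroxybutyryl-CoA 90 uM final); plates read kinetically for NADH fluorescence. HADH2 was His-tagged, E. coli-derived, 20 nM.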
# Active calls of the source: *; ? = inconclusive; & = joins results of further samples; [ ] = remark or other dose. On the % scale 0 is the no-effect control and ±100 the full control effect; potency means the concentration at half of the fitted maximal effect. Not all compounds are listed, so the mix of outcomes need not match the whole.
SMILES,HSD17B inh
COc1ccc2[nH]c(=O)c(CN(Cc3ccco3)C(=O)c3ccccc3)cc2c1,32µM*
CCn1nc(C)c(Oc2ccccc2O)c1C,2%
CS(=O)(=O)N1CCN(C(=O)NC23CC4CC(CC(C4)C2)C3)CC1,18%
CCCN(Cc1cc2cccc(C)c2[nH]c1=O)C(=O)c1cccc(OC)c1,?
CC(C)NC(=O)N1CC2(CCN(S(=O)(=O)c3ccccc3)CC2)C1,9%
CCOc1ccc(OCC)c(NC(=O)C2CCCN(S(=O)(=O)c3c(C)noc3C)C2)c1 (stereo not drawn),3%
CC(C)c1nnc(SCC(=O)NCc2ccco2)n1C,1%
CN(C)Cc1ccccc1-c1ccc2ncnc(N(C)C)c2c1,-5%
COc1ccccc1N1CCN(c2cc(=O)n(Cc3ccc(F)cc3)c(=O)[nH]2)CC1,12%
CC(=O)NC12CC3CC(C1)CC(C(=O)OCC(=O)c1ccc4c(c1)OCCO4)(C3)C2,5%
O=C(C(c1ccccc1)c1ccccc1)N1CCN(Cc2ccccn2)CC1,10%
O=C(NCCOC(=O)c1ccc(S(=O)(=O)N2CCOCC2)cc1)c1cccnc1,-4%

# Among those listed so far, 3 contain an NH in an aromatic ring.
SMILES,HSD17B inh
COc1ccc2[nH]c(=O)c(CN(Cc3ccco3)C(=O)c3ccccc3)cc2c1,32µM*
CCCN(Cc1cc2cccc(C)c2[nH]c1=O)C(=O)c1cccc(OC)c1,?
COc1ccccc1N1CCN(c2cc(=O)n(Cc3ccc(F)cc3)c(=O)[nH]2)CC1,12%

# Later entries:
SMILES,HSD17B inh
CCOC(=O)Cc1csc(NC(=O)CCS(=O)(=O)Cc2ccccc2)n1,4%
COc1ccc(C2NC(=O)NC(O)(C(F)(F)F)C2C(=O)c2ccc(C)cc2)cc1 (stereo not drawn),2%
O=C(COC(=O)CCC(=O)c1ccc(F)cc1)Nc1ccc(N2CCOCC2)cc1,9%
COc1cccc(-n2c(COc3ccc(C)cc3)nnc2SCC(N)=O)c1,26%
CCC(CC)c1nnc(NC(=O)c2c(-c3ccccc3)noc2C)s1,-21%
O=C(O)c1ccc(Cl)c(Cl)c1,1%
CN(C)C1C(=O)C(C(N)=O)=C(O)[C@@]2(O)C(=O)C3=C(O)c4c(O)ccc(Cl)c4C(O)[C@H]3C[C@@H]12 (stereo partly drawn),-2%
Cc1ccc(-n2ncc3c(=O)n(Cc4cccnc4)cnc32)cc1,?
COc1ccc(-n2c(=O)c(-c3ccccc3)nc3cncnc32)cc1,7%
COc1ccc(N2C(=O)C3CCCN3C2c2cccc(OC)c2OC)cc1 (stereo not drawn),5%
CCC[C@@H]1C[C@@]1(CCC)C(NP(=O)(c1ccccc1)c1ccccc1)c1ccc(Cl)cc1 (stereo partly drawn),?
COC(=O)c1ccc(C(=O)OC)nc1,17%

# Single values from above:
# O=C(C(c1ccccc1)c1ccccc1)N1CCN(Cc2ccccn2)CC1 | HSD17B inh: 10%
# CCOc1ccc(OCC)c(NC(=O)C2CCCN(S(=O)(=O)c3c(C)noc3C)C2)c1 (stereo not drawn) | HSD17B inh: 3%
# CCn1nc(C)c(Oc2ccccc2O)c1C | HSD17B inh: 2%

# Additional structures
SMILES,HSD17B inh
COc1ccc(N(CC(=O)Nc2cccc(N(C)S(C)(=O)=O)c2)S(C)(=O)=O)cc1OC,8%
COc1cccc(Nc2ncccc2C(=O)NCc2ccccc2)c1,-11%
Cn1nc(SCC(=O)O)sc1=S,4%
O=C(Cn1cnc2ccccc21)OCC(=O)N1CCCc2ccccc21,-6%
O=c1[nH]cnc2c1ncn2C1CC(O)C(CO)O1 (stereo not drawn),4%
CCCCn1c(=N)n(CC(=O)C(C)(C)C)c2ccccc21,-1%
CCOc1ccccc1NC(=O)C1CCN(S(=O)(=O)c2c(C)nn(C)c2C)CC1,1%
CCC(=O)c1cn(CC(=O)NCC2CCCO2)c2ccccc12 (stereo not drawn),-4%
N#Cc1ccc(CSc2nnc(-c3ccccn3)n2-c2ccc(Cl)cc2)cc1,-4%
CCCCOc1ccc(-c2nnn(CCC(=O)N3CCOCC3)n2)cc1,17%
COc1ccc(S(=O)(=O)Cc2ccc(C(=O)NCc3cccs3)o2)cc1,-3%
O=C(C(NS(=O)(=O)c1cccs1)c1ccccc1)N1CCN(c2ccccc2)CC1 (stereo not drawn),-10%
Nc1ccc(S(=O)(=O)NCCS(=O)(=O)O)cc1,7%[11.4 µM]
O=C(NCC(=O)N(c1cccnc1)C(C(=O)NCc1ccco1)c1ccccc1)c1ccco1 (stereo not drawn),3%
COC(=O)[C@@]1(Cc2ccc(OC)cc2)[C@H]2c3cc(C(=O)N4CCCC4)n(CCO)c3C[C@H]2CN1C(=O)c1ccccc1,35%[activator]
O=C(Nc1ccccc1N1CCCC1)c1cc2ccccc2o1,-26%
CCNS(=O)(=O)c1ccc(NC(=O)Nc2cccc(C(F)(F)F)c2)cc1,-6%
COC(=O)C1=C(CN2CCSCC2)NC(=O)NC1c1cc(C)ccc1C (stereo not drawn),-9%
OCC1OC(n2cnc3c(=S)nc[nH]c32)C(O)C1O (stereo not drawn),-4%
NC(=O)COc1ccc(=O)n(-c2ccccc2)n1,4%
COC(=O)C1C(=O)C2=C(CC1C)NC(C)=C(C(=O)OCCOc1ccccc1)C2c1ccc(C)o1 (stereo not drawn),?
O=C(c1cccc(F)c1)N1CCC2(CC1)CCN(c1ccncc1)CC2,-7%
O=S(=O)(NCc1ccccc1Cl)c1cnc[nH]1,-1%
Cc1cc2ccccc2n1CCNC(=O)C1CC1,12%
O=C(O)C(Cc1ccccc1)n1cccc1 (stereo not drawn),?
CCOC(=O)Nc1nnc(-c2ccc(OC)c(OC)c2)s1,13µM*
Cc1cc(C(F)(F)F)c2c(=O)[nH]c(=O)n(Cc3ccccc3)c2n1,136%[activator]
O=C(c1cc(-c2cccs2)on1)N1CCOCC1,-19%
COCC(=O)N1CCC[C@@]2(CCN(c3ccccn3)C2)C1,32µM*
COc1ccccc1NC(=O)c1cccs1,4%
Cc1cc(OCC(=O)Nc2ccc3c(c2)OCCO3)ccc1Cl,-8%
Cc1ccc(-n2c(SCC(=O)N3CCOCC3)nnc2-c2ccncc2)cc1,-1%
CC(C)n1c(NCc2cc(Cl)ccc2O)nc2ccccc21,-10%
CO[C@H]1COC(=O)[C@@H](C)NC(=O)C/C=C\[C@@H](C)[C@H](OC)COC(=O)C/C=C\[C@@H]1C,-1%[11.4 µM]
Cc1ccnc(-n2c(CCN3C(=O)c4ccccc4C3=O)nc3ccccc3c2=O)c1,5%
CCn1cc(C(=O)NC2CC3CCC2C3)c(=O)c2ccc(C)nc21 (stereo not drawn),11%

# Part of the list above in order of count of non-hydrogen atoms, largest number first:
SMILES,HSD17B inh
Cc1ccc(-n2c(SCC(=O)N3CCOCC3)nnc2-c2ccncc2)cc1,-1%
CCn1cc(C(=O)NC2CC3CCC2C3)c(=O)c2ccc(C)nc21 (stereo not drawn),11%
Cc1cc(OCC(=O)Nc2ccc3c(c2)OCCO3)ccc1Cl,-8%
CCOC(=O)Nc1nnc(-c2ccc(OC)c(OC)c2)s1,13µM*
O=C(c1cc(-c2cccs2)on1)N1CCOCC1,-19%

# Next records follow.
SMILES,HSD17B inh
Cc1cc2c(=O)n(CC(=O)N3CCN(c4ccccc4)CC3)cnc2s1,-4%
CCCN1[C@H](C(=O)OC)C[C@@]2(O)[C@@H](O)[C@@H](O)[C@@H](O)C[C@@H]12,7%
O=C(O)CCCCCNc1nc(=S)[nH]c2ccccc12,1%
CCOC(=O)N1CCC(N2CC34C=CC(O3)C(C(=O)Nc3ccc(C)cc3)C4C2=O)CC1 (stereo not drawn),2%
Cc1ccccc1-n1nc(C)c2cc(C(=O)N3CCN(S(=O)(=O)c4ccc(F)cc4)CC3)sc21,-5%
CC(NC(=O)c1cc2ccccc2o1)c1cccs1 (stereo not drawn),4%
COc1ccc2nc(C)cc(C(=O)O)c2c1,32µM*
CCC(c1nnc(SCC(=O)NCC2CCCO2)n1Cc1ccccc1)N(C)C (stereo not drawn),2%
CO[C@@H]1COC(=O)[C@H](COCc2ccccc2)NC(=O)C/C=C\[C@@H](C)[C@H](OC)COC(=O)[C@@H](C)NC(=O)C/C=C\[C@H]1C,5%[11.4 µM]
N#CC1=C(N)OC2=C(C(=O)CCC2)C12CCC1(CC2)OCCO1,-10%
CCOC(=O)N1CCN(S(=O)(=O)c2ccc(C(=O)Nc3sc4c(c3C#N)CCC4)cc2)CC1,1%
COc1ccccc1N1CC(C(=O)OCC(=O)c2ccc(F)cc2)CC1=O (stereo not drawn),2%

# 2 entries from above, with tabs.
molecule	HSD17B inh
O=C(O)CCCCCNc1nc(=S)[nH]c2ccccc12	1%
CCOC(=O)N1CCC(N2CC34C=CC(O3)C(C(=O)Nc3ccc(C)cc3)C4C2=O)CC1 (stereo not drawn)	2%

# Next compounds.
SMILES,HSD17B inh
COc1ccc(CNC(=O)CCn2c(=O)oc3ccccc32)cc1,-1%
CCOP(=O)(c1ccc(N(C)C)cc1)C(O)c1ccccc1OC (stereo not drawn),-13%
O=C(O)CCCNS(=O)(=O)c1cccs1,12%
CCOc1ccc2[nH]c(=O)c(CN(Cc3nnnn3Cc3ccccc3)CC3CCCO3)cc2c1 (stereo not drawn),?
CCN(C(=O)CCc1nc(-c2ccccc2F)no1)c1cc(OC)ccc1OC,-4%
CCN(CC)CCCN1C(=O)C(=O)/C(=C(/O)c2ccc(OC)c(Cl)c2)C1c1ccco1 (stereo not drawn),-8%
C[C@@](N)(C(=O)O)c1ccc(C(=O)O)cc1,4%&-3%
CCOC(=O)N1CCN(C(=O)Nc2ccc3nc(C)sc3c2)CC1,-7%
CCOC(=O)N1CCN(c2ccc(C(=O)CC)cc2F)CC1,3%
CC(C)NC(=O)CCNS(=O)(=O)c1ccc(Br)cc1,3%
c1ccc(COc2ccc(OCCn3cncn3)cc2)cc1,3%
Cc1cccc(/N=C/c2c(O)c3ccccc3oc2=O)n1,2%
CC(n1cnnn1)C12CC3CC(CC(C3)C1)C2 (stereo not drawn),15%
O=C(Cn1nnc(-c2ccccc2F)n1)Nc1ccc2c(c1)OCO2,11%
Cc1nnc(SCC(=O)NCc2ccco2)[nH]c1=O,-20%
COc1ccc(C2C(C#N)=C(N)OC3=C2C(=O)CCC3)c(OC)c1OC (stereo not drawn),9%
CCCCOc1ccc(C(=O)N2CCCCCC2)cc1,0%
O=C(Nc1ccccc1-c1ccccc1)NC1CCN(CC(=O)N2CCOCC2)CC1,6%
CSc1ccc(N2C(=O)NC3(CCCCC3)C2=O)cc1,2%
Cc1cc(C(=O)CSc2nnc(-c3ccc(OC(F)F)cc3)o2)c(C)n1Cc1cccs1,-15%
COC1C(O)CC(=O)OC(C)C/C=C/C=C/[C@@H](OC2CCC(N(C)C)C(C)O2)C(C)C[C@@H](CC=O)[C@@H]1O[C@H]1OC(C)[C@H](O[C@@H]2C[C@@](C)(O)C(O)C(C)O2)C(N(C)C)C1O (stereo partly drawn),4%
CCOc1ccc(OCc2ccc(C(=O)Nc3cccc(C)n3)o2)cc1,?
COc1ccc(-c2ccc(-c3noc(-c4ccncc4)n3)c(OC)n2)cc1,?
CN1C(=O)C(CC(=O)Nc2ccc3c(c2)Cc2ccccc2-3)N(C)C1=O (stereo not drawn),7%
CCN(C(=O)Cn1c(=O)n2nc(CCn3nc(C)cc3C)nc2c2ccccc21)c1cccc(C)c1,-1%
O=C(COC(=O)c1ccco1)Nc1ccccc1,15%
COc1ccccc1NC(=O)CSc1nnnn1-c1ccc2c(c1)OCO2,-5%
CCC(=O)Nc1c(-c2cccs2)c(=O)c2ccccc2n1C,4%
O=C(O)Cn1ccnc1[N+](=O)[O-],11%[11.4 µM]
COc1ccccc1-c1nnn(CC#N)n1,5%
Nc1nc2ccccc2n1CCN1CCCC1,11%
CC1CN(Cc2nc3c(c(=O)n(C)c(=O)n3C)n2CC(=O)c2ccccc2)CC(C)O1 (stereo not drawn),9%
COC(=O)Cn1c(=O)sc2ccccc21,9%
O=C(NCc1ccco1)C1CCCN(S(=O)(=O)c2cccc3nsnc23)C1 (stereo not drawn),-13%
COc1ccc(-c2nnn(CC(=O)NC3CCCc4ccccc43)n2)cc1OC (stereo not drawn),0%
O=C(NC1CCCC1)c1ccc(Br)s1,0%
CCC(C)(C)n1nnnc1C(c1cccnc1)N1CCCc2ccccc21 (stereo not drawn),0%
CCN1C(=O)c2ccccc2S(=O)c2ccc(C(=O)NC3CC3)cc21 (stereo not drawn),5%
O=C(NC1CC1)c1ccc2c(c1)ncn2C1CCCC1,2%
CCOC(=O)N1CCN(c2c(F)cc3[nH]c(=S)[nH]c3c2Br)CC1,-14%
COc1ccc(C(=O)COC(=O)Cn2nnc3ccccc32)cc1Br,?
COC(=O)Nc1nnc(CC(=O)Nc2ccccc2C)s1,3%
CCCCSc1nnc(-c2ccc(NC(=O)CC)cc2)n1C,-9%
CCn1cc(C(=O)NCC2CCCO2)c(=O)c2cc(S(=O)(=O)N3CCCCC3)ccc21 (stereo not drawn),7%
COc1cccc(C(O)CC(N)=O)c1 (stereo not drawn),4%
Cc1cc(NC(=O)CSc2nnc(-c3ccoc3C)o2)no1,-28%
CCOC(=O)c1ccccc1NC(=O)c1ccc(NS(C)(=O)=O)cc1,2%

# Bioassay records (PubChem)
